VDR inh: inhibitors of human vitamin D receptor; P11473; Potency, µM, for inactives: max response, negative = inhibition, usual class: inhibitors; 0.93% of 400,000 active; VDR-SRC2-3 peptide fluorescence polarization, 2 h; active = well fitted inhibition curve with a large enough effect; inconclusive = small, poorly fitted or top-dose-only effect, or another doubt; inactive = no such curve, though single readings can be large or run the other way; note: series mostly up to about 120 µM
Target sequence (P11473 whole entry, looked up): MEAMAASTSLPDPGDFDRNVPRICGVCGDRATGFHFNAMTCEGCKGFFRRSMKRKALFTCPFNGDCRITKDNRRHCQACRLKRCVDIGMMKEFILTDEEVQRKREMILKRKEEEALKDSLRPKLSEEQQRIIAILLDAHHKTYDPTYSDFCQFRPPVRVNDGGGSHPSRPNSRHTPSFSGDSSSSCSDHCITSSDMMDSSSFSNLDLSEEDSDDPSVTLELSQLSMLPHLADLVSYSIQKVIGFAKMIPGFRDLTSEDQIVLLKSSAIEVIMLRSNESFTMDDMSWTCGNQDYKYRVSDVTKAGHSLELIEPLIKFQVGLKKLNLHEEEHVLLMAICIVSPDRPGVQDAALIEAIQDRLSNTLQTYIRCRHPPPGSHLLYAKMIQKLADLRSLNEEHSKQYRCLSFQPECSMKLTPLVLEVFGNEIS
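Compounds are added to VDR with labelled SRC2-3 coactivator peptide and held 2 h at room temperature. Inhibition of the VDR–peptide interaction is then read as a change in fluorescence polarization.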
* marks the source's active call; other numbers are inactive results; ? = inconclusive; & = joins results of further samples. % is set by controls: 0 for no effect and ±100 for the full control effect; potency is the fitted concentration of half-maximal effect. These rows are one share of the data; rates above refer to the full screens.

VDR inh	SMILES
-12%	O=C(Nc1nnc(C2=COCCO2)o1)c1ccc(S(=O)(=O)N2CCCC2)cc1
19%	O=C(Nc1cnccn1)c1cccs1
-19%	Cc1ccc(F)cc1NC(=O)CN1CCN(Cc2ccccc2)CC1
10µM*	O=c1c(Br)ccc(Br)cc1Br
3%	O=C(CN1C(=O)NC2(CCc3ccccc32)C1=O)Nc1cccc(F)c1 (stereo not drawn)
10%	CCOC(=O)CCCNC(=O)COc1ccccc1C#N
8%	O=C(OCc1ccc2c(c1)OCO2)c1ccc(S(=O)(=O)N2CCCC2)cc1
-10%	COc1ccc(OCCCC(=O)Nc2ccc(N3CCOCC3)cc2)cc1
?	COc1ccc2oc(=O)c(/C(C)=N/NC(=O)c3ccncc3)cc2c1
4%	CCC1=Nc2cc(C(=O)N3CCC(C)CC3)ccc2Sc2ccc(C)cc21
0%	OCCCc1nc2ccccc2n1CCc1ccccc1
10%	CC(NC(=O)c1ccccc1Cl)NC(=O)c1ccccc1Cl
6%	CC(=O)Nc1ccc(NC(=O)CSc2nc(=O)n3cccc(C)c3n2)cc1
-20%	C/C(CC(=O)Nc1cccc(C(F)(F)F)c1)=N\NC(=O)c1ccncc1
-20%	CCOc1ccc(N=C(/C(C(=O)C(=O)N2CCOCC2)=C(\O)c2ccccc2)c2ccccc2)cc1
-13%	Cc1ccc(C)c(N2CCN(S(=O)(=O)c3ccc(C4CCCCC4)cc3)CC2)c1
-7%	COc1cccc(OC)c1OCCN1CCN(C(=O)c2ccco2)CC1
-6%	CC1CN(Cc2ccccc2)c2nc3c(c(=O)n(CC(=O)O)c(=O)n3C)n2C1 (stereo not drawn)
-15%	CC(Oc1ccccc1F)C(=O)Nc1ccc2ccccc2c1 (stereo not drawn)
-26%	CCOC(=O)c1c(C)oc2c1c(C=NCC1CCCO1)c(O)c1ccccc12 (stereo not drawn)
5%	CCOC(=O)Cn1c(=N)n(CCOc2ccc(Br)cc2)c2ccccc21
-9%	CCCCOC(=O)C(C)Oc1ccc(=O)n(-c2ccccc2)n1 (stereo not drawn)
4%	CC(=O)c1cccc(NC(=O)CCc2nnc3ccc(NCc4ccc5c(c4)OCO5)nn23)c1
-2%	Cc1ccc(N2CC(=O)N(CC(=O)O)C2=O)cc1
5%	Cc1cc(C(=O)O)cc(S(=O)(=O)Nc2ccccc2C(=O)NC(C)c2ccccc2)c1C (stereo not drawn)
11%	COc1ccc(NC(=O)CCCCCN2C(=O)[C@@H]3Cc4ccccc4CN3C2=O)cc1Cl
-8%	O=C(C[n+]1cn(C(F)F)c2ccccc21)c1ccc(Br)cc1
-30%	Cc1cccc(-c2nn(-c3ccccc3)cc2C(=O)NCC(c2cccs2)N2CCOCC2)c1 (stereo not drawn)
6%	O=C(CCC(=O)c1ccccc1)NCc1ccccc1
-18%	FC(F)(F)c1cccc(-n2cc(-c3ccccc3)[nH]c2=S)c1
-2%	COc1cc(C)nc(Oc2ccc(=O)[nH]n2)n1
7%	Cc1cc(C)cc(NC(=O)N2CCN(C/C=C/c3ccccc3)CC2)c1
3%	O=C(c1ccc2ccccc2c1)C1CCCN(S(=O)(=O)c2cccnc2)C1 (stereo not drawn)
-3%	O=C(NCc1nc2ccccc2[nH]1)C1=C[C@H](c2ccc(C(F)(F)F)cc2)C[C@H](OCCCCO)O1
-7%	CCOC(=O)c1c(C)n(-c2ccc(C)cc2)c2ccc(OCC(O)CNCCCO)cc12 (stereo not drawn)
14%	O=C(OCC(=O)c1ccc(S(=O)(=O)N2CCCC2)cc1)C1=COCCO1
-17%	CN(C)C(=O)CSc1ccccc1C(=O)OCC(=O)NC1CC1
-5%	COCCNC(=O)c1ccccc1NC(=O)CCSc1ccccc1
-3%	Cc1ccc(S(=O)(=O)N(CC(=O)NCc2cccnc2)c2ccc(F)cc2)cc1
-11%	CN(Cc1ccccc1)S(=O)(=O)c1ccc(OCC(=O)N2CCOCC2)cc1
11%	Cc1cc(S(=O)(=O)NC2CCCCC2)ccc1OCC(=O)N1CCOCC1
15%	N#Cc1cc2c(nc1Cl)CCCC2
-9%	CN1CCN(C(=O)c2c(NC(=O)c3ccco3)sc3c2CCC(C(C)(C)C)C3)CC1 (stereo not drawn)
-5%	COC(=O)C1=C(C)NC(=O)CC1c1cccc(Cl)c1Cl (stereo not drawn)
-12%	COc1cccc(CN2CCN(CCCc3ccccc3)C(CCO)C2)c1OC (stereo not drawn)
22%	CCc1sc(C(=O)Nc2nc(-c3ccccn3)cs2)cc1C
-4%	COC(=O)c1cc(NC(=S)NC(=O)c2ccccc2)ccc1N1CCOCC1
8%	Cc1ccc(Cl)cc1NC(=O)NCc1cccn1Cc1ccc(F)cc1

Ordered by length of the SMILES (rising): six of the compounds above.
VDR inh	SMILES
15%	N#Cc1cc2c(nc1Cl)CCCC2
0%	OCCCc1nc2ccccc2n1CCc1ccccc1
-19%	Cc1ccc(F)cc1NC(=O)CN1CCN(Cc2ccccc2)CC1
3%	O=C(CN1C(=O)NC2(CCc3ccccc32)C1=O)Nc1cccc(F)c1 (stereo not drawn)
14%	O=C(OCC(=O)c1ccc(S(=O)(=O)N2CCCC2)cc1)C1=COCCO1
-3%	Cc1ccc(S(=O)(=O)N(CC(=O)NCc2cccnc2)c2ccc(F)cc2)cc1

(further entries)
VDR inh	SMILES
4%	CC(C)(C)c1ccc(C(=O)N(Cc2ccc(F)cc2)Cc2ccco2)cc1
-9%	COc1ccc(C2=NN(C(=O)CSc3nc(=O)n4cc(C)ccc4n3)C(c3ccc(C)cc3)C2)cc1 (stereo not drawn)
-1%	Cc1cccc(-c2nnc(SCc3ccc(C#N)cc3)n2Cc2ccco2)c1
-8%	COc1ccccc1CNC(=O)c1ccc(Cl)c(NC2=NC3CS(=O)(=O)CC3S2)c1 (stereo not drawn)
-9%	Cc1cc(=O)[nH]c(SCC2(O)C3CC4CC(C3)CC2C4)n1 (stereo not drawn)
3%	CCC(C)NC(=O)c1cn(CC)c2ccc(S(=O)(=O)N(C)C)cc2c1=O (stereo not drawn)
6%	CC12CN3CC(=O)N4CC5(C)CN(CC(C)(C4)C5=O)C(=O)CN(C1)CC(C)(C3)C2=O
-12%	O=C(NCCOc1ccc(F)cc1)C1CCC(=O)N(CC2CCCCC2)C1 (stereo not drawn)

Next section, overlapping the part above by 5 compounds.
VDR inh	SMILES
-8%	COc1ccccc1CNC(=O)c1ccc(Cl)c(NC2=NC3CS(=O)(=O)CC3S2)c1 (stereo not drawn)
-9%	Cc1cc(=O)[nH]c(SCC2(O)C3CC4CC(C3)CC2C4)n1 (stereo not drawn)
3%	CCC(C)NC(=O)c1cn(CC)c2ccc(S(=O)(=O)N(C)C)cc2c1=O (stereo not drawn)
6%	CC12CN3CC(=O)N4CC5(C)CN(CC(C)(C4)C5=O)C(=O)CN(C1)CC(C)(C3)C2=O
-12%	O=C(NCCOc1ccc(F)cc1)C1CCC(=O)N(CC2CCCCC2)C1 (stereo not drawn)
-3%	O=C(CS(=O)(=O)c1ccc(Cl)cc1)NCCS(=O)(=O)c1ccc(Cl)cc1
4%	COc1ccc(S(=O)(=O)NC2CCCC2)c(Cl)c1Cl
-7%	O=C(Nc1cccc([N+](=O)[O-])c1)c1ccc2c(c1)OCO2
-9%	CCCCC12CN3CC(C)(CN(C1)C3c1c(C)[nH]c(=O)[nH]c1=O)C2=O (stereo not drawn)
-21%	O=C(Nc1nc2ccc(F)cc2s1)C1=COCCO1
-10%	Clc1ccc(-c2csc(N/N=C\c3cccnc3)n2)cc1
6%	Cc1cc(C)nc(NS(=O)(=O)c2ccc(NC(=O)COc3ccc(Cl)cc3C)cc2)n1
3%	CCCCCn1c(NCc2ccco2)nc2ccccc21
-1%	C/C(=N/NS(=O)(=O)c1ccccc1)c1ccc(Cl)cc1
-5%	CC(C)(C)c1ccc(C(=O)NCC(=O)OCC(=O)N2CCCC2)cc1
24%	COc1ccc(C)cc1NC(=O)Nc1cccc(C)c1
-3%	CCOC(=O)c1ccc(NC(=O)c2ccc(-c3cccc(Cl)c3C)o2)cc1
0%	CN(Cc1cccs1)C(=O)CCc1ccc(S(=O)(=O)N2CCOCC2)cc1
-12%	COc1ccc2nc(CC(C)(C)CC(=O)O)c[n+]([O-])c2c1
-1%	CCCCn1c(N)c(N(CCOC)C(=O)Cn2c(=O)oc3ccccc32)c(=O)[nH]c1=O
-24%	Cc1ccc(NC(=O)C2CCN(c3ncnc4c3nc3n4CCCCC3)CC2)nc1

Not a retest: an excerpt of the list.
VDR inh	SMILES
4%	CCC1=Nc2cc(C(=O)N3CCC(C)CC3)ccc2Sc2ccc(C)cc21
0%	OCCCc1nc2ccccc2n1CCc1ccccc1
10%	CC(NC(=O)c1ccccc1Cl)NC(=O)c1ccccc1Cl
6%	CC(=O)Nc1ccc(NC(=O)CSc2nc(=O)n3cccc(C)c3n2)cc1

Later entries:
VDR inh	SMILES
11%	CN1C(=O)NC(c2ccc(O)cc2)C2=C1CN(c1cccc3ccccc13)C2=O (stereo not drawn)
4%	N#Cc1ccccc1OCC(=O)NC(N)=O
12%	CCC1CCCCN1C(=O)c1ccc(OC2CCN(C(=O)C3CC3)CC2)cc1 (stereo not drawn)
-12%	Cc1c(C(=O)Nc2ccc3oc(-c4cccnc4)nc3c2)oc2ccccc12
2%	Cc1cc(C(=O)NCC2CCCCC2)ccc1[N+](=O)[O-]
5%	O=C(CN(C(=O)CNC(=O)c1cccs1)c1cccc(F)c1)NC1CCCC1
-10%	CC(C)(C)OC(=O)NCCCCCNC(=O)c1nc[nH]c1C(=O)NCCCCCNC(=O)OC(C)(C)C
9%	Cc1cccc(COC(=O)C(Cc2ccccc2)NC(N)=O)c1 (stereo not drawn)
-6%	Cc1ccn2c(=O)c(NC(=O)c3cccc([N+](=O)[O-])c3C)c(C)nc2c1
-8%	O=C(Nc1ccccc1O)c1ccc([N+](=O)[O-])cc1
15%	COc1ccc(Cl)cc1NC(=O)CSc1nc(N2CCCCC2)nc(N2CCCCC2)n1
7%	CC(=O)N1c2ccc(S(=O)(=O)N3CCC(C(=O)NC4CCCC(C)C4C)CC3)cc2CC1C (stereo not drawn)
6%	O=C(Nc1cccc(Cl)c1Cl)c1cc(S(=O)(=O)NCc2ccc3c(c2)OCO3)ccc1F
-9%	O=C(NCc1ccco1)c1cnccn1
4%	Cc1ccc(-c2n[nH]c(=S)n2/N=C/c2ccc(C)s2)cc1
0%	C=C[C@@H]1[C@@H](C)[C@H](C)C(=O)C([C@H](O)C(C)C)[C@@H]1C (stereo partly drawn)
-13%&-11%	Cc1ccc2c(c1)sc1nc(=O)n(-c3ccc(Cl)c(Cl)c3)c(=O)n12
-16%	CN(C)c1ccc(-c2nc(N(C)C)c3ccccc3n2)cc1
-24%	Cc1ccc(Oc2ccc(NC(=O)CSc3n[nH]c(N)n3)cc2)cc1
-21%	C=CCOc1ccc(Br)cc1CNC(C)(C)CO
13%	CN1CCN(C2=Cc3ccc(Cl)cc3Sc3ccc(F)cc32)CC1
1%	COc1ccc(C(C)=O)cc1CC(=O)Nc1ccc2c(c1)CCC2
-1%	O=C(CN1C(=O)NC2(CCCC2)C1=O)NC(c1ccccc1)c1ccccc1
-4%	CC12CCC(C(=O)N3CCN(Cc4ccccc4)CC3)(OC1=O)C2(C)C (stereo not drawn)
20%	Cc1cc(C)c2nc(NC(=O)c3ccco3)sc2c1
12%	Cn1cccc1Cc1nnc(SCC(=O)N2CCCCCC2)n1CCc1ccccc1
3%	CC[C@@]1(C(=O)OC)N[C@H](CN(C)C(=O)c2ccccc2)[C@@H]2C(=O)N(Cc3ccccc3)C(=O)[C@@H]21
-20%	Cc1nc2ccc([N+](=O)[O-])cc2c(=O)n1Cc1ccc(Cl)cc1
4%	CCC(=O)Nc1c2c(nn1-c1ccc(C)cc1)CS(=O)(=O)C2
25%&0%	O=C(O)C1CCCN(CCC=C(c2ccccc2)c2ccccc2)C1 (stereo not drawn)
-9%	COc1ccc(Cl)cc1NC(=O)CCN1C(=O)NC(C)(C)C1=O
7%	CCSc1nnc(NC(=O)[C@@H](NC(=O)c2cccc(C)c2)C(C)C)s1
13%	CCOC(=O)c1sc2nc(SC)nc(-c3ccccc3)c2c1N
5%	O=c1cc(-c2ccc(C(F)(F)F)cc2)oc2ccccc12
-10%	CC1CCc2c(sc3ncnc(SC(C)C(=O)NCC4CCCO4)c23)C1 (stereo not drawn)
10%	CCN(Cc1ccccc1)C(=O)CCCOc1ccccc1
10%	Cc1ccc(C2(c3noc(CN4C[C@@H](C)O[C@@H](C)C4)n3)CCCC2)cc1
1%	CCCCCSc1nnc2c(n1)OC(c1cccn1C)N(C(C)=O)c1ccccc1-2 (stereo not drawn)
-10%	CN(C)c1ccc(C(=S)N2CCCCC2)cc1
13%	O=C(c1ccc(F)cc1)c1c[nH]c(C(=O)NCc2cccnc2)c1
9%	COc1ccc(/C=C(/C(=O)Nc2ccccc2C(=O)NC(C)C)c2ccccc2)cc1
-14%	COc1ccc(CN(CCC(c2ccc3c(c2)OCO3)c2ccccc2OC)C(C)=O)cc1 (stereo not drawn)
2%	COc1ccc(-n2c(SCC(=O)c3ccccc3)nc3c([nH]c4ccccc43)c2=O)cc1
5%	COc1ccc(NC(=O)c2ccc(CN(c3cc(Cl)ccc3C)S(=O)(=O)c3ccccc3)cc2)cc1OC
7%	O=c1c(-c2ccc(F)cc2)nc2cnc(Oc3ccccc3)nc2n1Cc1cccs1
-16%	COc1ccc(OC)c(Nc2nc3ccccc3n3c(C)nnc23)c1
-4%	CCOC(=O)C1CCCN(C(=O)c2sc3nc4n(c(=O)c3c2C)CCC4)C1 (stereo not drawn)
5%	N#C/C(=N\O)c1nc2ccccc2[nH]1
4%	CCc1c(C)c(C#N)c2nc3ccccc3n2c1NCc1ccccn1
?	N/C(=C\C(=O)c1cc(Cl)ccc1O)C(Cl)(Cl)Cl

Source: PubChem BioAssay (National Center for Advancing Translational Sciences (NCATS))
